VDR inh: vitamin D3 receptor (human) inhibition. Potency, µM, inactives show max response, negative = inhibition, actives largely listed as inhibitors. P11473. AID 504847. actives 0.93% (n = 400,000). VDR-SRC2-3 peptide fluorescence polarization, 2 h; active = well fitted inhibition curve with a large enough effect; inconclusive = small, poorly fitted or top-dose-only effect, or another doubt; inactive = no such curve, though single readings can be large or run the other way; also: series mostly up to about 120 µM
Target sequence (P11473 whole entry, looked up): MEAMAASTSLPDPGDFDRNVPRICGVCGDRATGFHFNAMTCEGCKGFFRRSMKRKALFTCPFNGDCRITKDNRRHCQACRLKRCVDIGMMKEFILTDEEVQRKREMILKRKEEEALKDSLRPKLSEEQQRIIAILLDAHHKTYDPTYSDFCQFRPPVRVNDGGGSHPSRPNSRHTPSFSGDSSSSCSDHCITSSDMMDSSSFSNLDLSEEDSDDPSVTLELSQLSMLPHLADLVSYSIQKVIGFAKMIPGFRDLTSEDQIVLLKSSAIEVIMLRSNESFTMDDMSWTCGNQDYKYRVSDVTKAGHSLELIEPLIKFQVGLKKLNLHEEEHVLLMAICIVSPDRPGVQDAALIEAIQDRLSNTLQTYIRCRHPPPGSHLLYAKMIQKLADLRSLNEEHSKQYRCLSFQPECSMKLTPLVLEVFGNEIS
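VDR–SRC2-3 interaction, FP format. Cmpds 23 nl via pintool, brief spin, 2 h ambient incubation.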
Numbers without * were called inactive; ? = inconclusive. % is scaled to controls: 0 for no effect and ±100 for the full control effect; potency is read from the fitted curve at half-maximal effect. Not all compounds are listed (hit frequency here may not be typical).

SMILES	VDR inh
Cc1cnc(C(=O)N2CCN(c3ccc(C(F)(F)F)cn3)CC2)cn1	-6%
CSCCC(NC(=O)c1ccc(Cl)cc1)C(=O)O (configuration not stated)	4%
CCOC(=O)c1c(C)[nH]c(CCC(=O)NCc2cccc(OC)c2)c1C	7%
Cc1c(NC(=O)c2c(NC(=O)CNC3CC3)sc3c2CCCC3)c(=O)n(-c2ccccc2)n1C	-16%
O=C(Nc1ccc(NC(=O)c2cccs2)cn1)c1ccccc1	-3%
CC1(C)C(=O)Nc2ccccc2N1C(=O)COC(=O)c1cccc(O)c1	3%
O=C(O)c1cc(S(=O)(=O)N2CCCCC2)ccc1N1CCOCC1	-6%
O=C1C2C3c4ccccc4C(c4ccccc43)[C@@H]2c2nc3ccccc3n21 (some centres not stated)	-4%
O=C(CCNc1cccc(Cl)c1)c1ccco1	6%
Cc1cccc(C(=O)Nc2ccc3nc(SCCOc4ccccc4)sc3c2)c1	14%
CC(C)c1ccc(S(=O)(=O)Nc2ccc3c(c2)OCO3)cc1	8%
Cc1ccc(N2CCN(C3=NC(=O)/C(=C\c4cccs4)S3)CC2)cc1	2%
Cc1oc2c(c(C)cc3oc(=O)c(CC(=O)N[C@@H](CCCNC(N)=O)C(=O)O)c(C)c32)c1C	-18%
CC(Oc1ccc(F)cc1)C(=O)Nc1ccccc1C(=O)NC1CC1 (configuration not stated)	8%
CC(OC(=O)CN1C(=O)NC2(CCCC2)C1=O)C(=O)Nc1cccc(Cl)c1Cl (configuration not stated)	4%
COc1ccc(CCC(=O)OCC(=O)NCc2ccc3c(c2)OCO3)cc1	-13%
COc1ccc(CNC(=O)N2CCN(c3cccc(C)c3C)CC2)cc1OC	5%
Cc1nn(-c2ccccc2)c(C)c1NC(=O)COC(=O)c1ccccc1	-1%
COc1ccc(NC(=O)NC2(C(=O)N3CCCC(C)C3)CCCCC2)cc1 (configuration not stated)	-10%
Cc1ccc(NS(=O)(=O)c2ccc3[nH]c4c(c3c2)CCCCC4)cc1	25%

Shown comma-delimited: 19 of the compounds above
Molecule,VDR inh
CSCCC(NC(=O)c1ccc(Cl)cc1)C(=O)O (configuration not stated),4%
CCOC(=O)c1c(C)[nH]c(CCC(=O)NCc2cccc(OC)c2)c1C,7%
Cc1c(NC(=O)c2c(NC(=O)CNC3CC3)sc3c2CCCC3)c(=O)n(-c2ccccc2)n1C,-16%
O=C(Nc1ccc(NC(=O)c2cccs2)cn1)c1ccccc1,-3%
CC1(C)C(=O)Nc2ccccc2N1C(=O)COC(=O)c1cccc(O)c1,3%
O=C(O)c1cc(S(=O)(=O)N2CCCCC2)ccc1N1CCOCC1,-6%
O=C1C2C3c4ccccc4C(c4ccccc43)[C@@H]2c2nc3ccccc3n21 (some centres not stated),-4%
O=C(CCNc1cccc(Cl)c1)c1ccco1,6%
Cc1cccc(C(=O)Nc2ccc3nc(SCCOc4ccccc4)sc3c2)c1,14%
CC(C)c1ccc(S(=O)(=O)Nc2ccc3c(c2)OCO3)cc1,8%
Cc1ccc(N2CCN(C3=NC(=O)/C(=C\c4cccs4)S3)CC2)cc1,2%
Cc1oc2c(c(C)cc3oc(=O)c(CC(=O)N[C@@H](CCCNC(N)=O)C(=O)O)c(C)c32)c1C,-18%
CC(Oc1ccc(F)cc1)C(=O)Nc1ccccc1C(=O)NC1CC1 (configuration not stated),8%
CC(OC(=O)CN1C(=O)NC2(CCCC2)C1=O)C(=O)Nc1cccc(Cl)c1Cl (configuration not stated),4%
COc1ccc(CCC(=O)OCC(=O)NCc2ccc3c(c2)OCO3)cc1,-13%
COc1ccc(CNC(=O)N2CCN(c3cccc(C)c3C)CC2)cc1OC,5%
Cc1nn(-c2ccccc2)c(C)c1NC(=O)COC(=O)c1ccccc1,-1%
COc1ccc(NC(=O)NC2(C(=O)N3CCCC(C)C3)CCCCC2)cc1 (configuration not stated),-10%
Cc1ccc(NS(=O)(=O)c2ccc3[nH]c4c(c3c2)CCCCC4)cc1,25%

Next entries:
SMILES	VDR inh
O=C(CNc1ccc2ccccc2c1)N/N=C/c1ccccn1	3%
COCCOc1ccc(C(F)(F)F)cc1NC(=O)CN1C(=O)NC(C)(c2ccc3c(c2)OCO3)C1=O (configuration not stated)	-21%
COc1ccc(NC(=O)COC(=O)C2CCN(S(=O)(=O)c3ccccc3)CC2)cc1Cl	1%
COc1ccc(OC)c2nc3c(C(=O)NCCN(C)C)cccc3nc12	-11%
COC(=O)c1cc(=O)n(CCc2ccc(OC)cc2)c(=Nc2ccc(F)c(Cl)c2)s1	-4%
CCn1c(-c2ccc(OC)c(OC)c2)n[nH]c1=S	2%
COCCn1c(-c2cccs2)csc1=Nc1cccnc1	-15%
NC(=O)CC[C@@H](N)C(=O)O	1%
CCCOc1ccc(C(=O)N2CC3(CC(c4cccc(NC(=O)[C@@H]5CCC(=O)N5)c4)=NO3)C[C@H]2C(=O)NC2(C(N)=O)CC2)cc1 (some centres not stated)	-12%
NC(=O)c1cc(S(=O)(=O)N2CCCC2)ccc1OCCOc1ccccc1	-16%
Cn1c(=O)c(CCc2ccccc2)nc2cnc(Oc3ccccc3)nc21	3%
O=C1CSC(c2ccc(Cl)cc2)N1c1cccnc1 (configuration not stated)	-6%
CCCCn1c(SCC(=O)NC(=O)NCc2ccco2)nc2cc(S(N)(=O)=O)ccc21	4%
COc1ccccc1/C=N/NC(=O)c1sc(C)nc1C	-24%
Cc1cccc2cc(=O)[nH]c(C)c12	-7%
CSc1ncccc1C(=O)OCC(=O)c1[nH]c(C)c(C(C)=O)c1C	-5%
COc1ccc(OC)c(S(=O)(=O)N2CCC(C(=O)NCc3ccc4c(c3)OCO4)CC2)c1	-20%
Cn1c(=O)n(-c2cccc(Cl)c2)c(=O)c2c3c(sc21)COC(C)(C)C3	11%
COc1ccc(CNC(=O)C(C)N2C(=O)NC3(CCCCCCC3)C2=O)cc1 (configuration not stated)	4%
COc1ccc(CCNc2nc3cc(OC)c(OC)cc3c3nc(-c4cccnc4)nn23)cc1OC	3%
Cc1ccc(S(=O)(=O)N2CCC(C(=O)Nc3ccc(S(=O)(=O)N4CCOCC4)cc3)CC2)cc1	5%
CC1(C)Cc2cccc(OCC(=O)Nc3cccnc3Cl)c2O1	16%
O=C(NCCc1ccccc1)c1nc2nc(-c3cccs3)cc(C(F)(F)F)n2n1	14%
COCCNC(=O)C(=O)c1c(-c2ccccc2)[nH]c2ccccc12	-2%
CCN(CC)S(=O)(=O)c1ccc(C(=O)OCCNC(=O)c2cccnc2)cc1	-3%
Cn1nc([N+](=O)[O-])nc1Oc1ccc2ccccc2c1	0%
COC(=O)[C@@]12CCCCN1[C@H](c1ccc(-c3ccc4c(c3)OCO4)c(OC)c1)[C@@H]1C(=O)N(C)C(=O)[C@@H]12	-1%
O=[N+]([O-])c1ccc(Cl)c(-c2ccc(/C=N/n3cnnc3)o2)c1	-6%
CCN(CC)C1=NC=CC(c2ccccc2)=CC1C (configuration not stated)	-2%
O=C(COC(=O)/C=C/c1ccc(Cl)cc1)NCCN1C(=O)CSC1=O	-23%
CC(C)(C)c1ccc(OCCC(=O)NCCc2ccc(S(N)(=O)=O)cc2)cc1	8%
O=C(CNS(=O)(=O)c1ccccc1)Nc1ccc(C(F)(F)F)cc1	11%
CC(C)=CCN1CCN(Cc2cccc3nonc23)CC1CCO (configuration not stated)	15%
COc1ccccc1Nc1nnc(SCC(=O)N2CCCC2=O)s1	-6%
O=C(COC(=O)c1ccc(F)c(S(=O)(=O)N2CCOCC2)c1)c1ccccc1	18%
Cc1ccc(C(=O)CC(=O)c2cccc(F)c2)c(O)c1	15%
C#CCNC(=O)C1=C[C@H](c2ccccc2)C[C@H](OCCCCO)O1	-2%
CC1CCCCC1N=CC1=C(O)CC(C)(C)CC1=O (configuration not stated)	-2%
Cc1ccc(CNC(=O)C(NS(=O)(=O)c2cccc3nsnc23)C(C)C)cc1 (configuration not stated)	-8%
O=C(Nc1cccc(Br)c1)C1CCCC1	-24%
O=C(NC1CCCCCC1)c1cc2ccccc2oc1=O	-1%
Cc1cccc(NC(=O)Nc2ccc([N+](=O)[O-])cc2)n1	-3%
O=C(Nc1cccnc1)c1ccc(Br)c(S(=O)(=O)N2CCCC2)c1	20%
CCN1CCN(S(=O)(=O)c2ccc(OC)c(Br)c2)CC1	-15%
CCOC(=O)c1c(C)[nH]c(C(=O)CSc2nnc(C3CC3)n2N)c1C	?
CCOc1ccc(CCNC(=O)CN2C(=O)NC3(CCCCCC3)C2=O)cc1OCC	-10%
N#CCc1c(C#N)c(N)nc(N2CCN(c3ccc(F)cc3)CC2)c1C#N	3%
O=C(Nc1cccnc1)c1cnc2ccccc2n1	14%
COc1ccc2c(c1)SCC/C2=C\CN1C(=O)CCC1=O	-25%
O=C(COC(=O)c1ccccc1NCCO)NCCC1=CCCCC1	-7%
CCOC(=O)c1cc2c(=O)n3ccccc3nc2n(CCOC)c1=NC(=O)C(C)(C)Oc1ccc(Cl)cc1	-9%
Cc1ccc(NC(=O)NCc2ccc3c(c2)OCO3)c(C)c1	-9%
Oc1ccccc1-c1nnc(COc2ccc(Cl)cc2Cl)o1	79µM*
O=C(NCc1ccccc1)C1=C[C@H](c2ccc(Br)cc2)C[C@H](OCc2ccc(CO)cc2)O1	-6%
Cc1cc(N(C)C)nc(Nc2ccccc2)n1	12%
Cc1ccc(S(=O)(=O)c2cc(N3CCOCC3)nc(-c3ccccc3)n2)cc1	-6%
CCCCCCCCN1[C@@H](CC(=O)O)c2ccc(C(F)(F)F)cc2S1(=O)=O	?
S=C(NCCN1CCOCC1)N/N=C/c1c2ccccc2cc2ccccc12	-2%
C[C@H](CO)N1C[C@H](C)[C@@H](CN(C)Cc2ccncc2)Oc2c(NS(=O)(=O)c3cn(C)cn3)cccc2C1=O	2%
CC1Cc2ccccc2N1C(=O)COc1ccc2c(c1)OCO2 (configuration not stated)	12%

Following part
SMILES	VDR inh
Cc1ccc(S(=O)(=O)N/N=C\c2cc3c(cc2[N+](=O)[O-])OCO3)cc1	?
CC(=O)NC1=NC(=O)/C(=C/N2CCOCC2)S1	-12%
Cc1ccc(NC(=O)CSc2nnc(-c3cc(C)[nH]n3)n2N)c(C)c1	-13%
O=C(CN1C(=O)COc2ccccc21)N1CCN(C2CCCCC2)CC1	0%
O=[N+]([O-])c1ccc(-c2cn(-c3ccccc3F)c(=S)[nH]2)cc1	1%
CCn1ccnc1CN1CCC(n2nccc2NC(=O)CCc2ccccc2)CC1	1%
Cn1ncc(Br)c1C(=O)N1CCN(C(=O)c2ccco2)CC1	20%
O=C(OCCCc1cc2ccccc2c(=O)o1)c1ccc(C(F)(F)F)cc1	-1%
Cc1ccc(OCC(=O)Nc2ccc3c(c2)CCC3)c([N+](=O)[O-])n1	-20%
O=C(O)CSCC(=O)N(c1ccccc1)c1ccccc1	-10%
COc1cccc(NC(=O)CSc2nc3ccccc3c(=O)n2CCCC(=O)NCC2CCCO2)c1 (configuration not stated)	-7%
C/C(CC(=O)N1CCN(C=O)CC1)=N\NC(=O)c1ccc(Cl)cc1	-15%
C/C=C(/C)C(=O)Nc1cccc(C2=NOC3(C2)C[C@H](C(N)=O)N(C(=O)Cc2ccc([N+](=O)[O-])cc2)C3)c1 (some centres not stated)	-9%
COc1ccccc1N1CCN(C(=O)c2ccco2)CC1	2%
Cc1cccc(C(=O)NC2CCN(S(=O)(=O)c3ccc(F)cc3)CC2)c1	-18%
O=C(Nc1cccc(F)c1F)C1CCN(c2ncccn2)CC1	12%
COc1cccc(CN2CC(C(=O)NC3CCC(O)CC3)CCC2=O)c1 (configuration not stated)	-8%
O=C(COc1ccccc1F)Nc1nnc(SCc2cc(=O)n3ccccc3n2)s1	15%
CC(=O)c1cccc(NC(=O)N2CCCC2C(=O)NCc2ccc(C)cc2)c1 (configuration not stated)	-6%
Fc1ccc(-c2cc(-c3nc(-c4ccc(Cl)cc4)no3)[nH]n2)cc1	3%
CN1CCC(N(C)CC(O)c2ccccc2)CC1 (configuration not stated)	-13%
Cc1ccc(-c2nnc(SCC(=O)Nc3ccc4c(c3)OCCO4)n2N)cc1	2%
CN1CCN(C(=O)c2cnn3c2NC(c2ccccc2)CC3C(F)(F)F)CC1 (configuration not stated)	1%
CCSc1nc2ccccc2n1CC(N)=O	7%
Cc1occc1C(=O)NCc1ccccc1	30%
COc1ccc(C2N(c3ccc4c(c3)OCCO4)C(=O)C2(F)F)cc1OC (configuration not stated)	-12%
O=C(CSc1ccc2nnc(-c3ccccc3)n2n1)N1CCCc2ccccc21	-6%
CCOC(=O)[C@H]1[C@H]2COc3ccc(OC)cc3[C@@H]2N2C(=O)c3cc(F)c(F)cc3NC(=O)[C@@]12C	-7%
O=C(NCCc1ccccc1)c1ccc(-c2ccccc2Cl)o1	-6%
COc1ccccc1C(=O)n1nc(-c2ccco2)nc1N	-18%
Cc1ccc(Cn2ncc3c(N4CCCC4)ncnc32)cc1	2%
COc1ccc(NC(=O)COC(=O)c2cc(=O)c3ccccc3o2)cc1OC	14%
C/C(N)=C(/C#N)C(=O)CSc1n[nH]c(-c2cccs2)n1	17%
COc1ccc(NS(=O)(=O)c2cc(NC(=O)c3ccc(=O)[nH]n3)ccc2N2CCOCC2)cc1	-3%
O=C1c2cccnc2C(=O)N1Cc1ccc(Cl)cc1	1%
O=C(NC1CCCCC1)N1CCCC(c2nc3ccccc3[nH]2)C1 (configuration not stated)	5%
COc1cc2[nH]ccc(=O)c2cc1OC	2%
COc1cccc(CN2CCN(Cc3ccc(O)cc3)CC2CCO)c1 (configuration not stated)	-14%
CCOC(=O)N1CCC(NC(=O)c2cnn(-c3cccc(C)c3)c2C2CCN(C(=O)OC(C)(C)C)CC2)CC1	5%
COc1ccc(C(=O)N2CCCC(Nc3ccc(C)c(C)c3)C2)cc1 (configuration not stated)	-9%
CC(=O)Nc1ccc(S(=O)(=O)N(C)Cc2cnn(C)c2)cc1	4%
CC(C)CC(NC(=O)C1CCC(C)CC1)C(=O)Nc1cccnc1 (configuration not stated)	-8%
O=C1CCc2cc(S(=O)(=O)Nc3ccc(C(F)(F)F)cc3)cc3c2N1CC3	14%
O=C(NC(=S)Nc1cccc([N+](=O)[O-])c1)C1CCCCC1	9%
O=C(Nc1cccc(Cl)c1)c1cc(-c2ccco2)on1	16%

Screening results: PubChem, National Center for Advancing Translational Sciences (NCATS)
